Menin MLL FP FL: menin-MLL binding inhibition, fluorescein peptide; Fluorescence polarization, fluorescein-MLL peptide displacement from menin; FP activity change, % at 61.4 µM; 290,000 tested, under 10 active; AID 1766; inconclusive = falling polarisation curve, or a change in total fluorescence; inactive = total fluorescence flat and polarisation flat or rising; no compound was filed as active; the % refers to the polarisation; negative = inhibition;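 also: % of control where 0% means no effect; inhibitors lower the polarisation; unlabelled MLL peptide was the positive control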
TRPML1 inh: inhibitors of human TRPML1 channel | Q9GZU1 | TRPML1-inducible cells, Ca2+ dye fluorescence, FDSS; active compounds read low; inhibition of EC80 agonist-evoked calcium signal | activity change, negative = inhibition, % (no concentration beside the values) | actives 0.02% (n = 390,000); in the data active means activity change below about -50%; inconclusive means about -30% to -50%; inactive means above about -30%;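 also: stimulus is agonist 54-4 at its EC80 concentration; % is scaled to controls: 0 for no effect and ±100 for the full control effect; compound concentration not given in the record; the text of the record puts the active cut at -80%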
Target sequence (Q9GZU1 whole entry, looked up): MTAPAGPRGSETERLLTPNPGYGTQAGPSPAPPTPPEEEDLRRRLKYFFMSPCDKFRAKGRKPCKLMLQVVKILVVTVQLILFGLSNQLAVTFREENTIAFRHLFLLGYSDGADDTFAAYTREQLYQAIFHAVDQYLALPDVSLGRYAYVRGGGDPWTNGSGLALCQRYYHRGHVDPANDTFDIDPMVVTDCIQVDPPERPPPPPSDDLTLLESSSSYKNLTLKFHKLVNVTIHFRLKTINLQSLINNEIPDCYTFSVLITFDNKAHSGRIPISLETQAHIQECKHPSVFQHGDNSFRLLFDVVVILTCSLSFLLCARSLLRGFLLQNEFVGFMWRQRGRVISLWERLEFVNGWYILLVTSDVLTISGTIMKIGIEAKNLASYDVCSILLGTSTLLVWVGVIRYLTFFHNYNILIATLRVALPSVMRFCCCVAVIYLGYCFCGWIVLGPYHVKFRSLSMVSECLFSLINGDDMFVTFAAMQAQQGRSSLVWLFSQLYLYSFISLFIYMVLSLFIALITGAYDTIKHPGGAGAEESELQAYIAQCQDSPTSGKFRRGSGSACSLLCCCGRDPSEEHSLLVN
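Calcium fluorescence in TRPML1-DL cells induced overnight with Tet: a 110 s read after compound pin addition, then a 110 s antagonist read after challenge with 54-4 at 4 uM final (EC80).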
ClpP mod: qHTS Assay for Activators of ClpP; ATP-dependent Clp protease proteolytic subunit (Bacillus subtilis (strain 168)), P80244; purified B. subtilis ClpP, FRET peptide cleavage, 20 min; Potency, µM (top dose mostly 57.5 µM), without a hit: at the highest dose activity change, negative = active; actives 1.9% (n = 340,000); active = well fitted falling curve with a large enough effect; inconclusive = small, poorly fitted or top-dose-only effect; inactive = no such curve, though single readings can be large or run the other way; also: potency is read from the fitted curve at half-maximal effect; the source files actives as falling curves though it sought activators and does not explain the sign; nearly all actives have a fitted effect of over 65% in size; many hits overshoot -100%
Target sequence (P80244 whole entry, looked up): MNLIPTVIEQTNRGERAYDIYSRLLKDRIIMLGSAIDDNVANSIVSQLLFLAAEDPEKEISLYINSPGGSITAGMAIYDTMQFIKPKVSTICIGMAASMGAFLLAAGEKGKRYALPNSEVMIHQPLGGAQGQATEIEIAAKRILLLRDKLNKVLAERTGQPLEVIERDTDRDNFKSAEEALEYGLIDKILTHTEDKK
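ClpP 10 microg/mL final, pH 8 Tris/KCl buffer with BSA, glycerol, Tween-20; compound pinned in; FRET-FV substrate; RT 20 min; Ex320/Em430; ΔFRET vs ADEP 5.8 microM, DMSO, no enzyme.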
gsp ag: gsp mutant agonism; gsp mutant cells, cAMP HTRF, 30 min; control for the full effect not named in the record; actives 0.13% (n = 340,000); Potency, µM (highest dose often 76.9 µM), without a hit: at the top dose activation (cAMP increase), actives largely listed as activators; active = well fitted activation curve with a large enough effect; inconclusive = small, poorly fitted or top-dose-only effect, or another doubt; inactive = no such curve, though single readings can be large or run the other way; cell line not stated here;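 also: phosphodiesterase inhibitor Ro 20-1724 added with compounds to block cAMP breakdown; potency is read from the fitted curve at half-maximal effect; nearly all actives have a fitted effect of over 60% in size; about a fifth of the inactives were tested at one dose only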
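Cells stably selected in G418 were plated at 2000/well, grown 16-24 hr, then given compounds in DMSO with the PDE inhibitor […] (300 uM solution added) for 30 min at 37C; cAMP was read by HTRF.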
gsp antagonist: antagonists of gsp mutant (McCune-Albright syndrome). gsp-mutant cells, cAMP HTRF, 30 min; control for the full effect not named in the record. actives 0.4% (n = 340,000). Potency, µM (series often up to 76.9 µM), without a hit: at the highest dose activity change, negative = inhibition, usual class: inhibitors; active = falling curve of any shape with a large fitted effect; inconclusive = falling curve, mostly with a smaller effect; inactive = flat or rising curve; cell line not stated here;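 also: intracellular cAMP measured with PDE inhibitor Ro 20-1724 present during compound exposure; potency is read from the fitted curve at half-maximal effect; % is scaled to controls: 0 for no effect and ±100 for the full control effect; nearly all actives have a fitted effect of over 65% in size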
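Cells, 2000/well, grown 16–24 h in DMEM 10% FBS with 0.5 mg/ml G418, then compounds plus […] (300 uM addition stock), 30 min at 37C. cAMP read by HTRF (cAMP-d2 and anti-cAMP antibody-K in lysis buffer) after 30 min RT.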
TRPML1 agonist: agonists of human TRPML1 channel | TRPML1-expressing cells, Ca2+ dye fluorescence, FDSS; host cell line not named in the record; reference of the full effect not given here | activation, % (concentration not given with the values) | actives 0.12% (n = 410,000) | AID 624414; in the data active = activation above about 50%; inconclusive = about 30% to 50%; inactive = below about 30%; also: 0% is about no effect; the text of the record puts the active cut at 80%
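Agonist activity was taken from a 110 s kinetic Ca2+ dye read on the FDSS after pinning compounds onto TRPML1-DL cells. The cells were seeded at 1,500/well with Tet inducer, incubated about 16 h, then dye-loaded at room temperature.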
* hit, by the source's call; ? = inconclusive; . = not tested or not shown; & = joins results of further samples; [ ] = remark or other dose.

Start of the listing, in advance:
#	SMILES	Menin MLL FP FL	TRPML1 inh	ClpP mod	gsp ag	gsp antagonist	TRPML1 agonist
1	Nc1c(C(=O)Nc2ccccc2)sc2nc(N3CCOCC3)c3c(c12)CCCC3	.	-19	4.7%	?	.	-0.7
2	CNc1cccc2c1C(=O)c1ccccc1C2=O	-26	-9	-8.8%	-70%[inhibitor]	-4%	2.1

Results, previewed entries included:
#	SMILES	Menin MLL FP FL	TRPML1 inh	ClpP mod	gsp ag	gsp antagonist	TRPML1 agonist
1	Nc1c(C(=O)Nc2ccccc2)sc2nc(N3CCOCC3)c3c(c12)CCCC3	.	-19	4.7%	?	.	-0.7
2	CNc1cccc2c1C(=O)c1ccccc1C2=O	-26	-9	-8.8%	-70%[inhibitor]	-4%	2.1
3	Cc1ccc(/C=C\c2nccc3c2[nH]c2ccccc23)cc1	4.3	33	4.0%&3.9%	-23%	4%	-0.6&1.1
4	FC(F)(F)c1cc(C(F)(F)F)c2ccc(N3CCN(c4ccccc4)CC3)nc2n1	1.1	-3	7.3%	4%	-2%	-0.4
5	O=C1CCC(=O)N1CN(Cc1ccco1)CN1C(=O)CCC1=O	-1.3	8	-4.5%	-7%	3%	1.4
6	Cc1ccc(NC(=S)N(Cc2ccc(Br)cc2)Cc2ccc(C(=O)O)cc2)cc1C	5.4	-1	.	16%[15.4 µM]	.	0.0
7	COC(=O)c1ccccc1NC(=S)N(Cc1ccc2c(c1)OCO2)Cc1cc2cc(C)ccc2[nH]c1=O	3.0	-13	-4.0%	-54%[inhibitor]	-6%	0.3
8	CC(=O)C1=C(C)NC(=O)CC1c1ccc(F)cc1 (centres undefined)	-2.5	-8	-0.3%	-5%[15.4 µM]	14%	-1.1
9	CCN1C(=O)[C@@H]2[C@@H](c3ccc(SC4CCCCC4)cc3)N3CCC[C@@]3(C(=O)OC)[C@@H]2C1=O	.	38	-1.3%	-63%[inhibitor]	-8%	0.2
10	CC(C)Oc1ccc(CNC(=O)c2ccc(NC(=O)c3nsc4ccccc34)cc2)cc1	.	-25	?	.	.	2.4
11	COc1ccc(OC)c(NC(=O)C2CCCN(S(C)(=O)=O)C2)c1 (centres undefined)	-0.9	-8	0.2%	-30%[inhibitor]	6%	-0.1
12	COC(=O)c1ccc(OC)c(CN2CCCN(Cc3ccc(F)cc3)S2(=O)=O)c1	-4.2	44	.	?	-22%	3.1
13	Cc1cc(Cl)ccc1NS(=O)(=O)c1c(C(=O)N2CCCCCC2)c(C)n(C)c1C	.	18	-1.4%	.	.	0.7
14	Cc1ccc(S(=O)(=O)CC(=O)NCc2ccc(Cl)cc2)cc1	.	12	0.4%	10%	14%	2.2
15	CCCN(CC(=O)Nc1c(C)cccc1CC)C(=O)SCC	0.9	-3	-3.4%	-64%[inhibitor]	5%	-0.7
16	CCN1CCN(c2sc(S(=O)(=O)CC)nc2S(=O)(=O)c2ccc(C)cc2)CC1	.	-5	-1.2%	?	.	0.1
17	CCOC(=O)N1CCC2(CC1)CC(=O)c1c(ccc3oc(C(=O)O)c(C)c13)O2	-0.9	-11	35µM*	-6%	20%	0.6
18	Cc1ccc(CN2CC(C(=O)Nc3ccc(S(=O)(=O)Nc4cc(C)nc(C)n4)cc3)CC2=O)cc1 (centres undefined)	0.4	?	0.3%	-13%	3%	-0.5
19	NC1=NC2(CCC(c3ccccc3)CC2)n2c(nc3ccccc32)N1 (centres undefined)	3.2	7	1.3%	17%	6%	-1.5
20	COc1ccc(C)cc1N(C)C(=O)c1c2c(nc3ccccc13)C(=O)N(C1CCCCC1)C2	.	-10	-2.3%	.	.	0.2
21	COc1ccc(-c2cn3c(C)c(C(=O)Nc4cccc(NC(C)=O)c4)sc3n2)cc1	4.4	-15	-4.0%	7%	6%	0.6
22	COC(=O)CSc1nc(C)cc(C)n1	-2.6	-12	.	-1%[15.4 µM]	2%	0.5
23	CCOC(=O)CNNC(=O)Nc1ccc(Cl)c(Cl)c1	-0.4	2	0.7%	?	8%	-0.1
24	COc1cc(/C=C/C(=O)NCc2nc3ccccc3[nH]2)cc(OC)c1OC	2.8	-20	2.9%	-11%	1%	1.7
25	O=S(=O)(c1ccc(OCC(O)CN2CCN(c3ccc(F)cc3)CC2)cc1)N1CCOCC1 (centres undefined)	0.1	-6	3.6%	6%	-8%	0.8
26	CCOC(=O)N1CCN(C(=O)c2ccc([N+](=O)[O-])cc2Cl)CC1	-2.1	-3	1.7%	0%[15.4 µM]	7%	0.6
27	CCOC(=O)C(C#N)=CN1CCN(C(=O)CCCl)c2ccccc21	.	-8	1.9%	-48%[inhibitor]	-31%	1.4
28	O=C(CSc1nnc(-c2ccc(Br)o2)n1Cc1ccccc1)c1ccccc1F	3.8	-5	2.1%	-8%	0%	1.1
29	CCOP(=O)(O)c1ccccc1OCCOc1ccccc1P(=O)(O)OCC	3.5	6	1.1%	?	2%	-0.3
30	O=C(O)CNc1nc(-c2ccccc2)nc2c1oc1ccccc12	1.3	.	-1.4%	12%	?	.
31	COc1ccccc1C(CNC(=O)c1cccc(NS(=O)(=O)c2ccc(C)c(F)c2)c1)N(C)C (centres undefined)	.	-2	0.7%	1%	-3%	-0.4
32	Cc1ccccc1-c1cc(C(=O)NCc2cccc(Br)c2)nn1CC1CC(c2cccc([N+](=O)[O-])c2)=NO1 (centres undefined)	.	23	-3.5%	9%	10%	-0.3

Sorted by molar mass (falling): 3 of the compounds above
#	SMILES	Menin MLL FP FL	TRPML1 inh	ClpP mod	gsp ag	gsp antagonist	TRPML1 agonist
32	Cc1ccccc1-c1cc(C(=O)NCc2cccc(Br)c2)nn1CC1CC(c2cccc([N+](=O)[O-])c2)=NO1 (centres undefined)	.	23	-3.5%	9%	10%	-0.3
27	CCOC(=O)C(C#N)=CN1CCN(C(=O)CCCl)c2ccccc21	.	-8	1.9%	-48%[inhibitor]	-31%	1.4
26	CCOC(=O)N1CCN(C(=O)c2ccc([N+](=O)[O-])cc2Cl)CC1	-2.1	-3	1.7%	0%[15.4 µM]	7%	0.6

(cont.)
#	SMILES	Menin MLL FP FL	TRPML1 inh	ClpP mod	gsp ag	gsp antagonist	TRPML1 agonist
33	CC(NCc1ccc(OCC(N)=O)cc1)C12CC3CC(CC(C3)C1)C2 (centres undefined)	-2.3	-3	.	-23%	6%	-0.2
34	C=CCN(C(=O)c1csnn1)C(C(=O)NC1CCCC1)c1ccc(Cl)cc1 (centres undefined)	.	-4	-13%	-7%[15.4 µM]	9%	-1.4
35	CCOc1ccc(NC(=O)c2ccccc2NS(C)(=O)=O)cc1	3.1	-6	1.1%	-11%	-23%	0.2
36	Cc1cc(C)n(CCNC(=O)c2ccco2)n1	5.1	13	.	20%[15.4 µM]	7%	0.3
37	CC(=O)N1CCc2c(sc(NC(=O)CSc3ccc(C)cc3)c2-c2nc3ccccc3s2)C1	.	14	-9.4%	.	.	-0.3
38	O=S(=O)(Oc1ccccc1)c1ccc(Cl)c(Cl)c1	.	9	.	?	-4%	11
39	COc1cccc(/C=C/c2nc3ccccc3c(=O)n2-c2ccc(C)c(C)c2)c1OC	.	14	1.3%	.	.	1.5
40	COc1cc(OC)c(C2C=C(c3ccc(C)cc3)Nc3c(C(=O)Nc4ccccc4)cnn32)cc1OC (centres undefined)	.	-2	-1.4%	.	.	-0.9
41	O=C(O)c1cccc(CN2C(=O)c3ccccc3C2=O)c1	-2.8	-7	.	29%	-5%	0.1
42	Oc1ccc(N=Cc2ccc(-c3cccs3)s2)cc1	6.6	2	110%	-4%	?	0.9
43	CC1=C(C(=O)Nc2ccccc2Br)C2(CCC(C)CC2)OC1=O (centres undefined)	.	-13	-2.0%	.	.	0.3
44	Cc1cc(-c2ccccc2)c2c(=O)[nH][nH]c2n1	2.7	-10	-0.9%	-2%[15.4 µM]	-5%	-0.4
45	COC(=O)c1cc(Cl)cc2c(C)c(C3(O)CCCCC3)[nH]c12	2.1	49	-23%	1%	-11%	1.0
46	COc1cc(OC)c(OC)cc1CNC(=O)CCN1C(=O)c2cccc([N+](=O)[O-])c2C1=O	1.9	5	.	-3%	-6%	-0.7
47	CCC(CC)c1nn2c(N)c(/C=C3\C=Nc4ccccc43)c(=O)nc2s1	1.2	6	.	-2%[15.4 µM]	3%	2.0
48	CC(OC(=O)CCc1ccccc1)C(=O)Nc1ccc(Cl)cn1 (centres undefined)	.	6	-1.4%	-41%[inhibitor]	6%	-0.8
49	Cc1ccc(C(=O)OCN2C(=O)c3ccccc3C2=O)cc1S(=O)(=O)N1CCOCC1	.	8	0.1%	-9%[15.4 µM]	-17%	0.0
50	Cc1ccc(C)c(S(=O)(=O)N2CCN(C(=O)c3cccnc3)CC2)c1	0.0	-3	1.4%	0%	-6%	-0.6
51	O=C(CCNS(=O)(=O)c1ccc2c(c1)CCCC(=O)N2)NCc1ccccc1Cl	.	0	-14%	.	.	0.8
52	COc1ccccc1/C=C/C(=O)OCC(=O)Nc1ccccc1Sc1ccccc1	.	6	.	-8%[15.4 µM]	-10%	3.4
53	O=C(NC1CCS(=O)(=O)C1)c1cccc(Cl)c1 (centres undefined)	.	5	.	-16%[15.4 µM]	6%	0.0
54	CCCCc1nn2c(=O)cc(COC(=O)c3cccc(NC(=O)COc4ccccc4)c3)nc2s1	.	25	-0.1%	.	.	-1.1
55	CCn1c(SCC(=O)N(C)CC(=O)Nc2ccc(OC)cc2)nnc1-c1ccco1	.	-11	-5.4%	3%[15.4 µM]	10%	0.8
56	O=C(NC1CCCCC1)N1CCN(c2ccc([N+](=O)[O-])cc2)CC1	-0.2	-5	0.2%	9%	?	-0.2
57	C=CCn1c(SCc2cc(=O)n3ccsc3n2)nnc1C1CCCCC1	5.5	-12	-1.6%	6%	-4%	-0.3
58	COc1cccc(/C=C2\SC(=S)N(CCCC(=O)N(CCO)c3ccccc3)C2=O)c1	.	5	0.3%	14%	?	1.2
59	COC(=O)c1cc(NS(=O)(=O)c2ccc3c(c2)OCCO3)ccc1Cl	.	-10	-3.3%	.	.	0.8
60	Cc1ccccc1NC(=O)CSc1nc2ccccc2c(=O)n1CC1CCCO1 (centres undefined)	-16	68	.	-5%	-8%	3.6
61	O=[N+]([O-])c1cccc(-c2nnc3n2CCCCC3)c1	-1.3	7	.	-22%	10%	0.1
62	COc1ccc(CN2CCN(CC=C(C)C)C(CCO)C2)cc1Cn1cncn1 (centres undefined)	7.1	8	.	-1%[15.4 µM]	18%	3.7
63	COc1ccc(NC(=O)c2ccco2)cc1NC(=O)COc1ccc(Cl)cc1C	.	2	1.6%	.	.	0.4
64	COc1ccc(C2(CNC(=O)C(=O)Nc3ccccc3C)CCCC2)cc1OC	.	12	1.2%	.	.	2.5
65	O=C(N/N=C/C=C/c1ccc2c(c1)OCO2)c1ccc([N+](=O)[O-])cc1	3.5	28	-1.6%	-26%	-3%	0.4

Compound activity: PubChem BioAssay, National Center for Advancing Translational Sciences (NCATS)
